Mtb MenB inh – blocks the Mycobacterium tuberculosis MenB enzyme; AID 540299; 0.43% of 100,000 active; MenB enzyme assay, absorbance read-out; some hits fall short of the stated cut; P9WNP5; inhibition, %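 (about 12 µg/mL by stock and volumes)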;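 active = mean of two replicates above 30%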;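 also: 0% = no compound and 100% = wells with inactive enzyme; the first replicate is given; strong numbers were not always called active; inactives centre near -10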
Polio RdRp inh – inhibitors of poliovirus RNA polymerase binding and polymerization | P03300 | poliovirus polymerase elongation, fluorescence polarization; hits give low values | % elongation, % (compound at 16.7 µg/mL) | 0.66% of 150,000 active | AID 588519; in the data active = % elongation below about 90%; also: some results filed as inactive read as strong as hits
Target sequence (P03300 1749-2209 limits assumed): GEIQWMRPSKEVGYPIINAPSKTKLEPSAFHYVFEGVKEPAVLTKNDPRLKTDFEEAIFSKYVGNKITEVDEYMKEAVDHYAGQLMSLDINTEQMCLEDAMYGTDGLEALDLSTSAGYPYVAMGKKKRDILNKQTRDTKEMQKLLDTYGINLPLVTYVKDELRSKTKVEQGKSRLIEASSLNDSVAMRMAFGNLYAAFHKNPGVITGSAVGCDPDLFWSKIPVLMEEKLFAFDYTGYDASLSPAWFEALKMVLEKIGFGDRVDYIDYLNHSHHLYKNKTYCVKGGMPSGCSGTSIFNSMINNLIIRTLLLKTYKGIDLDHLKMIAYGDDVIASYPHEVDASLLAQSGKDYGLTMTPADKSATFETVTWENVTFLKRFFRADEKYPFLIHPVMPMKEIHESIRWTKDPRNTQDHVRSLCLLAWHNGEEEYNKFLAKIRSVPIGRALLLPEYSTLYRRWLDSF
Mtb MbtI inh – inhibitors of Mycobacterium tuberculosis siderophore enzyme MbtI; purified MbtI enzyme, fluorescence intensity read-out; P9WFX0; inhibition, %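 (about 17 µg/mL by stock and volumes)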; 0.89% of 100,000 active;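 active = above 50% in both replicates, above 80% if mildly self-fluorescent; inactive = the rest, strongly fluorescent compounds included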;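 also: 0% = mean of negative and 100% = mean of positive controls; one replicate is shown; some compounds called inactive have numbers as strong as hits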
Target sequence (P9WFX0 whole entry, looked up): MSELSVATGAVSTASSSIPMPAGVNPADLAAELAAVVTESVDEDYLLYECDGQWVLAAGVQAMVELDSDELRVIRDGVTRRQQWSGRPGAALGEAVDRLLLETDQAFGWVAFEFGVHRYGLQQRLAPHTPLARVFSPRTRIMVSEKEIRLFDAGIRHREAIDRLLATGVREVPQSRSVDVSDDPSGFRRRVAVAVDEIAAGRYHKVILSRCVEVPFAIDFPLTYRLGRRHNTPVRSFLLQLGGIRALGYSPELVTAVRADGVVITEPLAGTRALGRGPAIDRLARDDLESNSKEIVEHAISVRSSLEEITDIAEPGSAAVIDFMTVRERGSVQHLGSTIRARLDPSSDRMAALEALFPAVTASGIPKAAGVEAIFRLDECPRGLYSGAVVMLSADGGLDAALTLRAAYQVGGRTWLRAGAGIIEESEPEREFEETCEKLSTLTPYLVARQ
Polio RdRp inh intensity – further read-out of Polio RdRp inh, marked with its call; % elongation; measured here: total intensity read-out; formula for this scale not given here;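 total fluorescence in place of polarization; lower means less elongation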
An asterisk follows results filed as active; . = no result given.

SMILES	Mtb MenB inh	Polio RdRp inh	Polio RdRp inh intensity	Mtb MbtI inh
N#CN=C(N)c1sc2nc3c(cc2c1N)CCCCC3	-42	104	100	.
CCCCNC(=O)C1OCCc2ccccc21 (configuration not stated)	-21	100	102	-7
O=C(O)COc1cc(Br)c(Br)c(Br)c1O	6	.	.	21
COc1cc2c(cc1OC)CN(C(=O)c1ccco1)CC2	2	106	110	.
C/C(=N\N)c1c(C)cc(C)[nH]c1=O	-12	105	110	11
CCOc1ccccc1NC(=O)Cc1ccc(OCc2c(C)noc2C)cc1	-31	109	113	-2
CC(C)c1ncc(C(O)c2ccccc2)n1C (configuration not stated)	.	100	103	-15
CC(C)(CNc1nnnn1-c1ccccc1)N1CCOCC1	13	96	99	1
CCCC(C)NC(=O)Cc1ccc(Cl)cc1 (configuration not stated)	-16	113	109	.
Nc1cccc(Cl)c1F	-18	103	101	11
Cc1nn(-c2ccccc2)c2c1-c1sc(C(=O)N3CCCC3)cc1CC2	-13	101	103	128
NNC(=O)N/N=C/c1ccc(I)cc1	-28	99	99	11
COC(=O)Cn1nnc(-c2nnn(COC(C)=O)c2-c2ccccc2)c1-c1ccccc1	1	110	115	.
Clc1ccc(-c2nn3c(-c4ccco4)nnc3c3ccccc23)cc1	-3	106	109	8
OC1CCC(Nc2ccnc3cc(Cl)ccc23)CC1 (configuration not stated)	-29	99	101	46
NC[C@@H]1O[C@H](O[C@@H]2[C@@H](CO)OC(O[C@@H]3[C@@H](O)[C@H](N)C[C@H](N)[C@H]3OC3O[C@H](CN)[C@@H](O)[C@H](O)[C@H]3N)[C@@H]2O)[C@H](N)[C@@H](O)[C@@H]1O (some centres not stated)	-20	87*	78*	-14
O=S(=O)(NCc1cc(F)cc2c1OCOC2)c1cccc2nonc12	-1	100	95	-3
CCOC(=O)/C=C(/C)Nc1ccc(OC)cc1	.	102	99	1
Cc1ccc(S(=O)(=O)CCSc2nc(C3CC3)cc(C(F)(F)F)c2C#N)cc1	-1	109	115	.
O=C1CCN(c2ccccc2)N1CCOc1ccc(Cl)cc1Br	-27	101	102	-16
COc1ccccc1CNC(=O)COc1ccc(-n2ccnc2)cc1	-6	99	100	-6
CCN(c1cccc2ccccc12)S(=O)(=O)c1ccccc1	-9	108	113	-10
COC(=O)c1cn[nH]c1N	-18	101	104	2
Cn1cc(Br)c(-c2ccc(NC(=O)Nc3ccccc3)cc2)n1	-7	101	96	6
Cn1c(N2CCNCC2)nc2ccccc21	.	101	98	5
COc1ccc(CNC(=O)Cc2cn(C)c3ccccc23)c(OC)c1	-25	106	108	-22
COc1ccc(OC)c2c(=O)cc(C(=O)O)oc12	-12	104	106	-4
CC(C)=NNC(=S)NC1CC2CCC1C2 (configuration not stated)	-6	99	102	-5
CC(Sc1nnc(-c2ccco2)n1-c1ccccc1)C(=O)NC(c1ccccc1)c1ccccc1 (configuration not stated)	25	102	103	12
Cc1ccc(NS(=O)(=O)c2cccc(C(=O)Nc3cc(C)on3)c2)cc1	2	106	102	.
CC(C)(CSc1ccccn1)NS(=O)(=O)c1ccccc1	-22	102	102	1
Cc1ccc(NC(=O)CC2(CC(=O)O)CCCC2)cc1	-6	104	100	-4
Cc1cccc(-c2nc(C)c(CCC(C)C)c(=O)[nH]2)c1	-15	101	100	4
CNC(=O)C1=NCCCc2cc(OC)c(OC)cc21	4	102	103	-11
CC(C)(C)c1ccccc1OCC(=O)O	12	93	104	0
O=C(COC(=O)c1ccc2c(c1)OCO2)Nc1ccc(S(=O)(=O)N2CCCC2)cc1	-8	105	113	-5
COc1cccc(C(=O)NCCO)c1OC	1	102	102	-22
O=C(OCC(=O)c1ccccc1)C1=COCCO1	3	97	102	-13
COc1ccc(Cl)cc1N(C(C)=O)c1nc(C)cc(C)c1C#N	-35	101	102	-7
O=C(CCC(=O)Nc1ccccc1)Nc1ccccc1	-23	98	101	8
O=C(CSc1ncnc2ccccc12)c1ccc[nH]1	-29	124	136	-5
Cc1cc(NN)nc2ccccc12	.	102	108	20
CCCN1CCC(NC(C)CCCC(C)(C)O)CC1 (configuration not stated)	-10	103	104	-4
C=CCNC(=O)c1ccc(NS(=O)(=O)CC)cc1	7	102	102	-62
COc1ccc(NC(=O)OCC(F)(F)C(F)F)cc1	-35	101	96	-2
O=C(O)C(Cc1c[nH]c2ccccc12)N1C(=O)c2ccccc2C1=O (configuration not stated)	-2	108	111	-7
O=C(O)COc1ccc2c(c1)CCC2	.	103	104	-8
O=C(N/N=C/c1ccc(O)cc1)Nc1cccc2nsnc12	37*	103	105	6
CCOc1ccccc1C(=O)NC(C(=O)NCc1ccco1)C(C)C (configuration not stated)	14	104	96	13
COc1cccc2c1cc1c(=O)n(CC(=O)NCCc3ccc(S(N)(=O)=O)cc3)nc(C)n12	-15	102	102	50
O=C(c1cccnc1Cl)N1N=C2/C(=C/c3ccco3)CCCC2C1c1ccco1 (configuration not stated)	-18	97	105	5
CCOc1cccc(/C=N/N2C(C)CCCC2C)c1O (configuration not stated)	2	105	107	5
Cc1c(C(=O)OCC2=NC3SC4=C(CCCC4)C3C(=O)N2)oc2ccccc12 (configuration not stated)	-12	102	109	-5
O=C(O)c1snc2c(=O)[nH]cnc12	-45	106	99	13
CC(=O)n1c(=O)sc2ccccc21	-5	109	100	.
CC1=CC(C)(C)N2C(=O)C3(OCCO3)c3cc(C)cc1c32	-9	102	105	0
O=C(CSC1=NC(=O)C(Cc2ccccc2)C(=O)N1)NCc1ccccc1 (configuration not stated)	-2	102	97	.
CCNCc1ccc(OCC)c(OC)c1	-13	106	111	-14
COc1ccc(-c2nc(SC(CC(=O)NCCN3CCOCC3)c3ccc(OC)cc3)n[nH]2)cc1 (configuration not stated)	-19	103	103	12
CCN(CC)S(=O)(=O)c1ccc(NC(=O)c2ccccc2Cl)cc1	-19	102	103	-2

Already shown: entries from further up.
SMILES	Mtb MenB inh	Polio RdRp inh	Polio RdRp inh intensity	Mtb MbtI inh
O=C(N/N=C/c1ccc(O)cc1)Nc1cccc2nsnc12	37*	103	105	6
CCOc1ccccc1C(=O)NC(C(=O)NCc1ccco1)C(C)C (configuration not stated)	14	104	96	13
COc1cccc2c1cc1c(=O)n(CC(=O)NCCc3ccc(S(N)(=O)=O)cc3)nc(C)n12	-15	102	102	50
O=C(c1cccnc1Cl)N1N=C2/C(=C/c3ccco3)CCCC2C1c1ccco1 (configuration not stated)	-18	97	105	5
CCOc1cccc(/C=N/N2C(C)CCCC2C)c1O (configuration not stated)	2	105	107	5
Cc1c(C(=O)OCC2=NC3SC4=C(CCCC4)C3C(=O)N2)oc2ccccc12 (configuration not stated)	-12	102	109	-5
O=C(O)c1snc2c(=O)[nH]cnc12	-45	106	99	13

Returning to the listing; the two compounds before the break are reprinted first.
SMILES	Mtb MenB inh	Polio RdRp inh	Polio RdRp inh intensity	Mtb MbtI inh
COc1ccc(-c2nc(SC(CC(=O)NCCN3CCOCC3)c3ccc(OC)cc3)n[nH]2)cc1 (configuration not stated)	-19	103	103	12
CCN(CC)S(=O)(=O)c1ccc(NC(=O)c2ccccc2Cl)cc1	-19	102	103	-2
N#Cc1cc2c(nc1SCC(=O)N1CCOCC1)CCC2	-36	102	99	15
CN(Cc1ccccc1)C(=O)CN(C)S(=O)(=O)c1ccc2c(c1)C(C)(C)C(=O)N2C	-2	102	101	-4
CCc1ccc(N2CCN(S(=O)(=O)c3ccccc3)CC2)cc1	-2	100	102	2
O=C(NCc1ccco1)c1csc2c1CCCC2	0	102	103	-3
CC(=O)N1c2ccccc2N(C(C)=O)C(C)C1C (configuration not stated)	-11	101	100	0
CCn1c(CSc2nc3ccccc3s2)nnc1SC(C)C(=O)Nc1ccc(N(C)C)cc1 (configuration not stated)	-16	100	99	26
COc1ccccc1N1CCN(C(C)C(=O)NCC2CCCCC2)CC1 (configuration not stated)	-24	105	115	-6
COc1cc(S(=O)(=O)N2CC(C)OC(C)C2)c(OC)cc1Cl (configuration not stated)	-25	105	101	-6
COC(=O)C1=CN(CC23CC4CC(CC(C4)C2)C3)C=C(C(=O)OC)C1c1cccs1	-25	108	109	.
CC(=O)OCC(=O)[C@@]12OC(C)(C)O[C@@H]1CC1C3C[C@H](F)C4=CC(=O)C=C[C@]4(C)[C@@]3(F)[C@@H](O)C[C@@]12C (some centres not stated)	-8	101	102	-7
Cc1ccc(S(=O)(=O)Nc2cc(C(=O)NC3CCCC(C)C3C)ccc2N2CCCCC2)cc1 (configuration not stated)	-13	101	106	3
CC1CCN(C(=O)COC(=O)C2(S(=O)(=O)c3ccc(Br)cc3)CCCC2)CC1	-9	108	111	-4
CCSc1nnc2c(=O)n(C)c(=O)n(C)c2n1	6	103	103	-8
Cc1cc(C)c(C#N)c(NC2CCCCC2)n1	-28	102	102	67
Cc1sc2ncnc(OCc3ccc(C#N)cc3)c2c1C	-25	111	106	-2
O=C(NC(c1ccccc1)c1c(O)ccc2ccccc12)C1CCCCC1 (configuration not stated)	-17	109	100	.
CCOC(=O)c1[nH]c(=O)[nH]c1CN(Cc1ccco1)Cc1[nH]c(=O)[nH]c1C(=O)OCC	-11	102	105	-20
COc1ccc(Cl)cc1NC(=O)Cc1coc2cc(C)cc(C)c12	-57	104	98	3
Cc1nn(-c2ccccc2)c(C)c1C(=O)N1CCCc2ccccc21	-34	106	99	-4
COc1cc(OC)c2c(=O)c(-c3ccc(Cl)cc3)coc2c1	-5	112	117	.

Look-ups from the entries so far.
O=C(NC(c1ccccc1)c1c(O)ccc2ccccc12)C1CCCCC1 (configuration not stated) in Mtb MenB inh is listed with -17
CN(Cc1ccccc1)C(=O)CN(C)S(=O)(=O)c1ccc2c(c1)C(C)(C)C(=O)N2C in Mtb MenB inh is listed with -2
Cc1sc2ncnc(OCc3ccc(C#N)cc3)c2c1C in Mtb MenB inh is listed with -25

The list goes on:
SMILES	Mtb MenB inh	Polio RdRp inh	Polio RdRp inh intensity	Mtb MbtI inh
N#Cc1cccc(NC(=O)CC(NC(N)=O)c2ccccc2Cl)c1 (configuration not stated)	-15	102	105	6
CC(C)c1nc2ccc(NC(=O)C3CCCCC3)cc2[nH]1	-1	109	109	.
O=C(O)CSCc1nc(-c2cnc3n(c2=O)CCS3)no1	-13	102	96	15
Cc1cc(OC(=O)c2nn(-c3ccccc3)nc2C)n(-c2ccccc2)n1	15	104	99	10
N#CC[N+]12CCN(CC1)CC2	-2	107	108	.
Fc1ccc(-c2nc3c4ccccc4c4ccccc4c3[nH]2)cc1	-25	108	106	.
CC(C)OC(=O)CSc1nnc(-c2ccc(Cl)cc2Cl)o1	-5	102	99	-6
C/C(=N\OC(=O)c1ccc(C(F)(F)F)cc1)c1ccc[nH]1	3	102	104	2
COc1ccc(OCC(O)CNC(=O)c2ccc(OC(F)(F)F)cc2)cc1 (configuration not stated)	-8	105	112	-11
Cc1cc(C(=O)Cn2cnc3ccccc3c2=O)c(C)n1-c1ccccc1	-49	101	94	13
Cn1c(NN)nc2sc3c(c2c1=O)CCCC3	-93	103	100	19
Clc1cc(Cl)cc(NC2=NCCS2)c1	-18	102	95	14
COc1ccc2c(-c3ccccc3)cc(=O)oc2c1OC	.	105	106	-7
COC(=O)C(CC(C)C)N1C(=O)c2cc(Cl)c(Cl)cc2C1=O (configuration not stated)	2	100	108	-5
Cc1ccc(C)c(C(C)CN)c1 (configuration not stated)	-24	104	96	-1
C=CCOc1ccc(-c2nn3c(-c4ccoc4C)nnc3s2)cc1	-46	103	102	70
Cc1cc(C)nc(SC2CCCCC2=O)n1 (configuration not stated)	-11	107	100	0
CC(c1ccco1)N(C(=O)Nc1ccc(Cl)cc1)c1ccccn1 (configuration not stated)	-11	106	106	-17
Cc1cc(C)cc(C(=O)NN2CCOCC2)c1	0	100	102	-14
O=C(C(c1ccccc1)c1ccccc1)N1CCc2ccccc21	-23	109	103	.
Cc1ccc(S(=O)(=O)N2Cc3ccccc3CC2C(=O)NC(C)C)cc1 (configuration not stated)	.	98	104	9
CNC(=S)NCc1sc2ccccc2c1C	-18	103	106	-2
CN(C)C(=S)NCc1ccccc1	-9	96	99	-4
Cc1onc(-c2c(Cl)cccc2Cl)c1C(=O)NC(C)(C)C	-18	102	101	1
O=C(CN(Cc1cccs1)C(=O)c1csnn1)NC1CCCC1	-5	102	105	-5
CCc1nn(CC(=O)NCCCN2CCC(Cc3ccccc3)CC2)c(=O)c2cc3sccc3n12	7	100	104	-4
Cc1c(C(=O)Nc2nccs2)nnn1-c1ccccc1Cl	17	99	103	7
CCCc1nc2ccc(NC(=O)c3ccco3)cc2c(=O)n1Cc1ccccc1Cl	-7	103	102	-8
COc1c2ccoc2nc2c(OC)c(OCC(O)C(C)(C)O)ccc12 (configuration not stated)	1	101	101	-186
Cc1nc(-c2noc(C(=O)NN)n2)cs1	-3	103	104	2
CCCCC(CC)C(=O)Nc1cc(OC)ccc1OC (configuration not stated)	-16	104	112	.
Cc1cc2c(cc1C)C(C)CC(C)(C)N2 (configuration not stated)	-1	102	104	-16
CC(C)CN(C(=O)CN1CCC(C)CC1)c1c(N)n(CC(C)C)c(=O)[nH]c1=O	18	105	98	8
CCNC(=O)N1c2ccccc2Sc2ccccc21	-12	.	.	-12
NC(=O)NC(Cc1ccccc1)C(=O)NC1CCCC1 (configuration not stated)	-36	105	108	-6
CC(C)CS(=O)(=O)c1oc(-c2cccs2)nc1S(=O)(=O)c1ccccc1	-11	101	104	44
O=C1OCCN/C1=C/C(=O)c1ccccc1	-36	103	103	-10
COC(=O)[C@H](Cc1ccc(O)cc1)NC(=O)c1cccc(Cl)c1	-3	101	104	-4
O=C(Nc1cc(Cl)ccc1Cl)C(O)(c1ccccc1)c1ccccc1	-39	104	107	-3

Screening data as filed in PubChem BioAssay.
